Screens: PubChem BioAssay, several laboratories
T cruzi repl – inhibitors of intracellular T. cruzi growth, primary screen, luminescence, NIH3T3 host cells | T. cruzi beta-gal in NIH3T3, 90 h | inhibition, % (no concentration beside the values) | 1.4% of 300,000 active | AID 1885, 2009;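 active = mean inhibition across valid replicates above about 55%, limit read from the data; inconclusive = mean below that limit but half or more replicates reach it; inactive = mean below it, under half of replicates reach it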;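 also: signal also drops with host cell toxicity which is not excluded here; 0% = plate median of DMSO wells and 100% = zero luminescence signal; higher percent means less beta-gal luminescence so fewer parasites; stock transfer was 50 nL into about 50 µL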
UCH37 DUB inh – inhibitors of human UCH37 deubiquitinase, primary screen, biochemical, Ub-AMC cleavage, fluorescence | Ubiquitin carboxyl-terminal hydrolase isozyme L5 (Homo sapiens), Q9Y5K5 | purified proteasome/UCH37 | 0.33% of 330,000 active | AID 588478, 2011 | inhibition, % (no concentration beside the values);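 active = mean of two replicates above 20%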;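 also: 0% = compound-free wells with enzyme and 100% = wells lacking proteasome; stock transfer was 100 nL into about 20 µL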
Target sequence (Q9Y5K5 whole entry, looked up): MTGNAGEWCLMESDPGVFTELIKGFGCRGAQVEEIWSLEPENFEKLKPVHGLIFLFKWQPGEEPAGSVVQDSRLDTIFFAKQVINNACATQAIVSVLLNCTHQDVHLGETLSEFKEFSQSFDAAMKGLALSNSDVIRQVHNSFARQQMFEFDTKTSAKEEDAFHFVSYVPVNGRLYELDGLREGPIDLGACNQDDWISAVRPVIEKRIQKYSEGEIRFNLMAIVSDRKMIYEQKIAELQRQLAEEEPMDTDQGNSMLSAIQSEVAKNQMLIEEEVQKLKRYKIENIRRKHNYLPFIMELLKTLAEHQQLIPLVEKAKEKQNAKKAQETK
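Test system – human UCH37 enzyme supplied as purified proteasome complex · Incubation – 30 min preincubation with enzyme, 25 min cleavage at room temperature · Detection – AMC fluorescence from Ub-AMC cleavage, excitation 355 nm, emission 460 nm · Benchmarks – no-proteasome wells (full inhibition) and compound-free wells (no inhibition)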
rRNA inh HTS – reduced GFP signal of wild-type E. coli, primary screen, bacterial rRNA inhibitor project, GFP/RFP fluorescence, OD600, single point; E. coli WT GFP vs humanized-ribosome RFP mutants, 24 h; hits give low values; DMSO median 0, no signal -100; GFP signal change (wild-type ribosome), % (test concentration not listed); 1.6% of 350,000 active; AID 720706, 2013;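 active = significant combined selectivity score with lowered wild-type GFP, culture density cut under 30%, mutant RFP and density less affected; inactive = any of these conditions unmet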; also: one replicate is shown; some compounds called inactive have numbers as strong as hits
A1 inh – caspase 3/7 activation in MEF A1-2A-BIM cells, primary screen, A1 inhibitor project, cell-based, luminescence, HTS; Caspase-Glo 3/7 luminescence, 3 h; percent of clofoctol response, vehicle zero; caspase activation, % (concentration not given with the values); 0.066% of 330,000 active;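 active = over half of replicate activation scores above 10%, or exactly half above 10 with the replicate mean above 10; inconclusive = replicate mean below 10 yet half the replicates above 10; inactive = over half of replicates below 10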;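 also: wells of about 30 µL received 50 nL stock; many hits fall short of the cut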
FGF22 binding – binders of human FGF22 protein, primary screen, FGF22 synaptogenesis inhibitor project, biophysical, thermal shift, single point. Fibroblast growth factor 22 (Homo sapiens), Q9HCT0. recombinant FGF22 thermal shift, SYPRO orange fluorescence; percent of sucrose octasulfate shift, DMSO zero. calls only at 9.99 µM. 1.5% of 340,000 active;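 active = melting point raised past a set limit in the mean and every replicate; inconclusive = no clear call; three in four hits are not shown here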
Target sequence (Q9HCT0 whole entry, looked up): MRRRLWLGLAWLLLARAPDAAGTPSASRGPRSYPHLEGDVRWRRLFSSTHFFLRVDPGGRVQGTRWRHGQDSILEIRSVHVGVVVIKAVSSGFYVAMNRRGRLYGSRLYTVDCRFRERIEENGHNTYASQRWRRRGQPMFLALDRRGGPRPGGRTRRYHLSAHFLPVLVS
Beta cell apopt – inhibitors of cytokine-induced beta cell apoptosis, primary screen, luminescence; 0.8% of 300,000 active; protection from apoptosis, % (no concentration beside the values); INS-1E cytokine-induced death, ATP luminescence, 48 h; percent of positive-control rescue, neutral wells zero;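 active = all replicates at 75% or more, or half of them and the mean; inconclusive = half reach 75% but not the mean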;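 also: 0% = cytokine-treated negative control wells and 100% = positive control rescue; higher means more ATP so stronger rescue from cytokine killing; wells of about 40 µL received 100 nL stock; the first replicate is given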
E coli growth – E. coli growth inhibition, primary screen, OD600; Escherichia coli growth, 23 h; hits give low values; OD600 absorbance (no concentration beside the values); 0.21% of 330,000 active;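 active = OD600 absorbance below the run mean of sample wells minus 3.6 SD, in any replicate, cut at about 0.56 in these data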;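 also: stock transfer was 300 nL into about 60 µL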
MLL AF4-AF9 inh – inhibitors of AF4 peptide binding to AF9, primary screen, biochemical, AlphaScreen, biotin-AF4 peptide, FLAG-AF9, single point | AID 651704, 2012 | inhibition, % at 10 µM | Protein AF-9 (Homo sapiens), P42568 | 0.47% of 350,000 active;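 active = every replicate reaching a set inhibition limit, whatever the replicate mean, cut at about 25% in these data; inconclusive = mean inhibition reaches that limit but some replicates miss it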;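 also: 0% = plate neutral control median and 100% = total signal loss; the record names both 10 and 1 µM as test concentration; the first replicate is given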
Target sequence (P42568 whole entry, looked up): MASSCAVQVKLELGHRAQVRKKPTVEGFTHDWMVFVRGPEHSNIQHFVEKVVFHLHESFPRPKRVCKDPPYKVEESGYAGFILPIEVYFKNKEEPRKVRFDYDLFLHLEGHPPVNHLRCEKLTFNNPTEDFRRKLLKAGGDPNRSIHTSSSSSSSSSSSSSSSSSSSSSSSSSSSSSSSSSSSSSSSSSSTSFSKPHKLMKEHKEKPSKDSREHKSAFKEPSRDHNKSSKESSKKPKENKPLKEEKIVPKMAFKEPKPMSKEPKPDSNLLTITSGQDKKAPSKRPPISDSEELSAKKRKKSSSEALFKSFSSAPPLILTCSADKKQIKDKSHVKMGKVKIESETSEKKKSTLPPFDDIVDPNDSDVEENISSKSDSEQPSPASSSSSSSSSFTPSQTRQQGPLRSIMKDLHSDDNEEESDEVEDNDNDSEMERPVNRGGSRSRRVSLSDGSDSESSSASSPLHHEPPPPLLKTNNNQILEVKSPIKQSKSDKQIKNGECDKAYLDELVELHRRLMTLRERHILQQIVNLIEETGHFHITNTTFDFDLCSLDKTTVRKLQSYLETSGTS
rRNA inh HTS OD600 – also measured in rRNA inh HTS; calls as there; OD600 change, %; measured here: OD600 growth;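 optical density of the mix in the first replicate; 0 = DMSO median and -100 = no signal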
rRNA inh HTS RFP – further read-out of rRNA inh HTS, marked with its call; RFP signal change, %; measured here: RFP humanized mutant strains;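 first replicate; 0 = DMSO median and -100 = no signal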
The depositor's hits bear a star; i = inactive; ? = inconclusive; nt = not tested or not shown.

smiles	T cruzi repl	UCH37 DUB inh	rRNA inh HTS	rRNA inh HTS OD600	rRNA inh HTS RFP	A1 inh	FGF22 binding	Beta cell apopt	E coli growth	MLL AF4-AF9 inh
COc1ccc(CC(=O)NNS(=O)(=O)c2ccc([N+](=O)[O-])cc2)cc1OC	-6	2.0	3	15	-1.0	0.5	i	-2	0.59	-5.9
Cc1ccc(CC(=O)Nc2ccc(C(=O)N3CCOCC3)cc2)cc1	-7	1.7	3	7	-1.0	-0.8	i	-1	0.69	-0.2
Cc1cc(C(=O)N2CCCC(C(=O)c3cccc(C(F)(F)F)c3)C2)n[nH]1 (centres undefined)	5	1.2	-1	1	-0.6	-0.7	i	1	0.63	-1.8
Cc1ccc2c(c1)N(CC(=O)N1CCCCC1)C(=O)CO2	-12	-0.1	2	4	-2.2	0.3	i	-6	0.69	2.5
Cc1onc(C(=O)N2CCN(c3ccccc3)CC2)c1[N+](=O)[O-]	-8	2.2	4	10	2.6	nt	i	nt	0.73	-3.1
Cc1cccc(C)c1Nc1nc2ccccc2o1	-7	6.1	3	-4	-0.5	0.9	i	-1	0.68	-2.9
O=C(COc1ccc(S(=O)(=O)NCCc2ccccc2)cc1)N1CCCC1	21	3.7	7	9	5.2	0.1	nt	0	0.67	nt
CC(=O)Nc1ccc(S(=O)(=O)N2CCN(S(=O)(=O)c3ccccc3)CC2)cc1	-7	-0.4	6	10	-0.8	1.2	i	nt	0.68	2.5
CC(Oc1ccc(NC(=O)c2ccco2)cc1)C(=O)N1c2ccccc2CC1C (centres undefined)	-9	-0.9	nt	nt	nt	0.8	nt	nt	0.72	nt
CN(CCOc1ccccc1)C(=O)c1ccc(N2CCCC2)c([N+](=O)[O-])c1	13	2.4	-8	-14	2.5	0.2	i	-5	0.64	10
O=C(c1nsc(Cl)c1Cl)N1CCCCC1	-16	-0.6	nt	nt	nt	0.5	nt	-5	0.71	nt
COc1ccc(-c2ccc(OC)cc2)cc1	-21	5.3	nt	nt	nt	-2.9	nt	-2	0.76	nt
O=C(c1n[nH]c2ccccc12)N1CCN(c2ccc(F)cc2)CC1	-4	4.1	-7	-5	0.6	-0.5	i	-2	0.67	-0.8
C[C@H](NC(=O)c1cc2cc(Cl)ccc2n1C)C(=O)N[C@@H](Cc1ccccc1)C(=O)O	-11	-0.6	-6	4	-0.4	0.8	i	-8	0.66	-9.4
CC(C)Oc1ccc(C(=O)Nc2ccc(N3CCCC3)cc2)cc1	18	-36	-8	20	7.6	-0.5	nt	11	0.64	nt
C=C1CCN([C@@H](Cc2ccccc2)C(=O)NCc2ccc(Cl)cc2)S(=O)(=O)c2ccccc21	21	-2.4	-2	-2	1.9	-1.8	i	15	nt	1.8
Cc1nc(Sc2ccccc2)c(C#N)cc1-c1ccccc1	?	0.6	nt	nt	nt	0.8	nt	-2	0.7	nt
COc1ccccc1NS(=O)(=O)c1ccc(/C=C/C(=O)O)cc1	4	2.1	9	4	-4.9	-0.6	i	0	0.66	-1.2
CCCCCCC1CC(=O)NC(=O)N1 (centres undefined)	-17	1.0	11	0	1.3	0.6	i	-11	0.69	-2.9
CCCN(CCC)C(=O)/C=C/c1cccc([N+](=O)[O-])c1	-6	0.2	1	-6	-7.1	-0.4	i	0	0.72	0.5
CCOc1cccc(-c2nnc3sc(-c4cccs4)nn23)c1	36	-3.9	nt	nt	nt	-1.0	nt	17	0.7	nt
CCC(C)[C@H](N)C(=O)NC[C@H]1CC[C@H](C(=O)N[C@@H](Cc2ccccc2)C(=O)O)CC1 (some centres undefined)	-8	nt	2	14	1.2	0.9	i	-4	nt	-0.1
COc1ccc(-c2csc(NC(=O)c3ccoc3C)n2)cc1	20	-0.3	-25*	-4.8*	2.8*	-0.8	i	nt	0.7	-1.5
Cc1ccc(-n2c(C)nnc2SCC(=O)N2CCc3ccccc3C2)cc1C	1	1.8	nt	nt	nt	-0.4	nt	-4	0.69	nt
Cc1ccc(SCCNC(=O)c2ccc(C)c([N+](=O)[O-])c2)cc1	0	-0.5	nt	nt	nt	0.0	nt	-1	0.71	nt
COc1cc(SC)ccc1C(=O)N1CCCCCC1	2	0.2	nt	nt	nt	0.3	nt	-7	0.66	nt
O=C(c1ccco1)N1CCn2cccc2C1c1ccccc1 (centres undefined)	-11	2.2	10	2	2.6	0.1	i	-5	0.71	7.9
Cc1cc(C(=O)Nc2ccc(Br)cn2)sc1C	nt	2.9	1	8	-2.5	-6.0	i	0	0.64	-2.9
CCC1(CC)CNC(=O)NC1=O	nt	0.7	1	-2	-2.0	nt	i	nt	0.7	-7.0
Cn1sc(NC(=O)c2ccc(Cl)cc2)nc1=O	-8	6.0	3	2	-3.3	-7.6	nt	-7	0.71	nt

Single values from the results shown.
Cc1nc(Sc2ccccc2)c(C#N)cc1-c1ccccc1 – UCH37 DUB inh = 0.6
O=C(c1ccco1)N1CCn2cccc2C1c1ccccc1 (centres undefined) – Beta cell apopt = -5
Cc1onc(C(=O)N2CCN(c3ccccc3)CC2)c1[N+](=O)[O-] – rRNA inh HTS RFP = 2.6
CCCCCCC1CC(=O)NC(=O)N1 (centres undefined) – E coli growth = 0.69

In the list so far, these have two or more sulfur atoms.
smiles	T cruzi repl	UCH37 DUB inh	rRNA inh HTS	rRNA inh HTS OD600	rRNA inh HTS RFP	A1 inh	FGF22 binding	Beta cell apopt	E coli growth	MLL AF4-AF9 inh
CC(=O)Nc1ccc(S(=O)(=O)N2CCN(S(=O)(=O)c3ccccc3)CC2)cc1	-7	-0.4	6	10	-0.8	1.2	i	nt	0.68	2.5
CCOc1cccc(-c2nnc3sc(-c4cccs4)nn23)c1	36	-3.9	nt	nt	nt	-1.0	nt	17	0.7	nt

(next part)
smiles	T cruzi repl	UCH37 DUB inh	rRNA inh HTS	rRNA inh HTS OD600	rRNA inh HTS RFP	A1 inh	FGF22 binding	Beta cell apopt	E coli growth	MLL AF4-AF9 inh
CCc1ccc2[nH]c3nc(SCc4nnc(-c5ccccc5)o4)nnc3c2c1	3	3.8	2	-2	-2.2	0.8	i	10	0.67	-5.0
CCC(C)NS(=O)(=O)c1ccc(F)c(C(=O)Nc2c(F)cc(F)cc2Br)c1 (centres undefined)	-17	6.2	-30	-32	-7.7	-0.4	i	-5	0.71	0.5
CC1(C)CC(=O)C(C(c2cccnc2)C2C(=O)CC(C)(C)CC2=O)C(=O)C1	-1	4.5	nt	nt	nt	-0.1	nt	-7	0.71	nt
OCC[C@H]1C[C@H](O)[C@@H](O)[C@@]2(Cc3ccccc3CO2)O1	nt	1.7	14	16	3.5	0.6	i	-2	nt	-4.0
COc1ccc(CNC(=O)C[C@H]2C(=O)N(Cc3ccc(OC)cc3)C[C@@H]2Cc2ccccc2)cc1	3	2.0	-30	-62	12	?	i	10	nt	0.0
CC(C)On1c(SC(C)C)nc2ccccc2c1=O	-3	1.2	nt	nt	nt	-0.3	nt	1	0.69	nt
O=C(Nc1ccc(Br)cc1)Nc1cnccn1	9	-0.7	-6	-2	-1.4	nt	i	nt	0.61	-1.1
CCOC(=O)C1=C(COC(=O)CNC(=O)c2ccc(C)cc2)NC(=O)NC1C (centres undefined)	-7	3.2	1	1	-2.0	0.0	i	-2	0.68	2.6
CCCCNC(=O)c1cn(CC)c2cc(N3CCN(C)CC3)c(F)cc2c1=O	10	-57	-51	-80	-18	0.3	i	-4	0.071*	3.0
Nc1cc(=O)[nH]c(SCC(=O)Nc2ccccc2-c2ccccc2)n1	-9	4.6	-1	10	4.4	-0.3	i	-8	0.7	-6.2
CC(OC(=O)c1ccc(NS(=O)(=O)c2cccs2)cc1)C(=O)N(C)C1CCCCC1 (centres undefined)	1	2.5	-1	-3	-2.2	-0.1	i	-17	0.73	-1.8
Brc1ccc(-c2nnc3sc(CNC4CCCC4)cn23)cc1	-2	1.6	2	13	-0.5	nt	i	-3	0.67	2.7
CCOC(=O)c1c(NC(=O)Cn2cnc3sc(C)c(-c4ccccc4)c3c2=O)sc(C)c1C	46	-8.6	5	1	1.9	-0.6	nt	0	0.73	-3.1
COc1ccc(-c2nnc(SCc3nnc(-c4ccccc4)o3)n2-c2ccccc2)cc1	19	5.2	nt	nt	nt	1.4	nt	-5	0.75	nt
CCOC(=O)CN1C(=O)C(=O)N(Cc2c(F)cccc2Cl)C1=O	-11	-1.7	6	5	-0.5	-0.7	i	1	0.63	0.6
O=C1CCCN2N=C(SCC(=O)Nc3ccccc3C(F)(F)F)SC2=N1	-6	0.9	12	2	3.5	0.9	i	1	0.66	-1.6
O=S(=O)(c1ccccc1)N1CN(Cc2ccc(F)cc2)c2nc3ccccc3nc21	13	0.4	-18	-8	-3.6	-0.5	i	2	0.7	4.2
COc1ccccc1NS(=O)(=O)c1cc(C(=O)NCC(c2ccco2)N(C)C)ccc1C (centres undefined)	2	2.2	-3	-2	-1.7	1.3	i	-7	0.7	6.2
N=c1ccn(Cc2ccc(Cl)cc2)cc1	-16	4.6	nt	nt	nt	0.2	nt	55	0.69	nt
Cn1c(CC(=O)Nc2ccccc2F)nnc1SCC(=O)Nc1ccccc1Br	5	0.6	1	4	0.2	0.4	i	-3	0.65	-0.7
CCOC(=O)c1[nH]c2ccccc2c1NC(=S)Nc1ccccc1C	-10	7.7	5	8	0.2	-2.1	i	1	0.72	13
O=C(N/N=C/c1cccnc1)c1ccccc1[N+](=O)[O-]	-3	nt	0	2	-1.0	0.2	i	3	nt	-1.0
O=C(NCCc1ccccc1)C(=O)N/N=C/c1ccccc1C(F)(F)F	-7	nt	22	5	1.2	-0.7	i	3	nt	1.8
COc1ccc(S(=O)(=O)N2CCN(C(=O)c3cc4c(s3)CCCC4)CC2)cc1	nt	0.9	nt	nt	nt	0.7	i	9	0.65	-0.4
COc1ccc(Nc2nc(Cl)nc(NCc3ccco3)n2)cc1	16	-2.6	10	8	0.2	-0.9	nt	3	0.73	nt
C/C(=N/NS(=O)(=O)c1ccc(C)cc1)[C@H]1C[C@@H]1c1ccccc1	4	nt	2	8	4.9	0.3	i	-3	nt	-4.9
c1ccc2c(CNCCN3CCOCC3)cccc2c1	8	2.9	nt	nt	nt	2.0	nt	-3	0.76	nt
N#C/C(=C\c1ccccc1)C(=O)Nc1ccccn1	-22	-41	12	9	0.5	0.1	i	-5	0.67	3.9

An excerpt. The share of hits here may be higher or lower than overall.
